Mtb hypoxia inh: Mtb hypoxia fluorescent reporter inhibition; M. tuberculosis hypoxia-regulated fluorescent reporter, fluorescence; fluorescence inhibition, % (concentration not given with the values); 300,000 tested, 0.1% active;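 active means 35 to 45% if threefold the growth effect, above 45% if 1.5-fold the growth effect; inactive means the rest, general growth blockers included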;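 further: wells of about 50 µL received 100 nL stock; 0% = vehicle wells and 100% = reference inhibitor wells; whole bacteria with a GFP reporter of the hypoxia response; strong numbers were not always called active; many hits fall short of the cut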
PrP 5UTR inh: suppresses PrP 5' UTR mRNA reporter expression. cell-based PrP 5' UTR mRNA reporter, plate reader. AID 488862. 340,000 tested, 0.35% active. inhibition, % (no concentration beside the values);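 active means every replicate at 50% or more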;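 further: 0 = median of the neutral control wells; tested in H4 reporter cells; numbers are from one replicate; inactives centre near -14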
BJeLR viability: BJeLR cell viability loss; BJeLR (HRASV12) viability, CellTiter-Glo ATP luminescence, 48 h; reference of the scale not given here; inhibition, % (concentration not given with the values); 300,000 tested, 0.17% active; AID 1554;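 active means replicate mean above 50%; inconclusive means above 50% but judged a plate artefact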;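 further: 50 nL library stock added to about 25 µL; numbers are from one replicate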
Sa RN4220 lethal: kills Staphylococcus aureus RN4220; inhibition, % (concentration not given with the values); 330,000 tested, 0.33% active; S. aureus RN4220 growth, OD600, 16 h; AID 1259311;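 active means z-score of -3 or lower and OD600 up to 0.18 on both plates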;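 further: plate controls were untreated cells for no effect and reference antibiotic for full effect; stock transfer was 100 nL into about 80 µL; one replicate is shown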
Bead autofluor: counter-screen for toxin protease inhibitors: compound fluorescence; compound autofluorescence counterscreen, microsphere flow cytometry; stronger effect = higher value; fluorescence intensity (concentration not given with the values); 360,000 tested, 3.1% active; AID 624483;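 active means at least 3 SD above the mean of all compounds, about 16000 in these data; inconclusive means too few beads counted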;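 further: 100 nL of 1 mM stock went into each well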
Sa ugtP lethal: kills S. aureus RN4220 lacking UgtP. AID 1259309. S. aureus RN4220 ugtP deletion, OD600 growth, 16 h; some inactives read as strong as hits. growth inhibition, % (concentration not given with the values). 330,000 tested, 0.54% active;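 active means z-score under -3 and OD600 up to 0.15 on both plates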;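 further: plate controls were untreated wells for no effect and antibiotic for full effect; wells of about 80 µL received 100 nL stock; the first replicate is given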
Mtb hypoxia inh growth: further read-out of Mtb hypoxia inh, marked with its call; growth inhibition, %; measured here: M. tuberculosis growth (absorbance);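 0% = vehicle and 100% = reference antibiotic; read after six days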
Active calls of the source: *; ? = inconclusive; nt = not tested or not shown.

SMILES	Mtb hypoxia inh	Mtb hypoxia inh growth	PrP 5UTR inh	BJeLR viability	Sa RN4220 lethal	Bead autofluor	Sa ugtP lethal
O=C(NCc1ccc(F)cc1)C1CCC(CNS(=O)(=O)c2ccccc2)CC1 (configuration not stated)	5	11	-10	-4	1.0	3722	5
CCOC(=O)c1ccc(NC(=O)COc2ccccc2CNCCO)cc1	14	5	74*	nt	2.4	?	2
CC1CCCCC1NC(=O)c1cc2ccccc2o1 (configuration not stated)	nt	nt	-28	-4	4.2	2637	-5
O=C(NN1CCN(Cc2ccccc2Cl)CC1)c1ccc(Br)cc1	3	3	-34	5	-1.7	4550	10
FCCCOc1ccc(-c2ccnc3ncnn23)cc1	1	7	-34	-16	1.3	5021	3
COc1cccc(/C=C2/SC(=S)N(CC(=O)NNC(=O)c3ccccc3O)C2=O)c1	6	5	-12	2	40	3422	47
Cc1ccc(C)c(N2CCN(c3nc4ccccc4c(=O)n3Cc3ccccc3)CC2)c1	1	-3	-16	18	-0.2	4208	12
O=[N+]([O-])c1cccc(Cl)c1NCCNc1ncc(C(F)(F)F)cc1Cl	nt	nt	-18	4	4.5	4228	4
CNC(=O)CC12CC3CC(CC(C3)C1)C2	13	6	-14	0	5.2	9752	7
O=C(CCN1CCC(c2ccccc2)C1)c1ccccc1 (configuration not stated)	11	13	-10	3	-1.3	11469	27
Cc1cc(NC(=O)CSc2nnc(-c3cccnc3)n2Cc2ccccc2)no1	-12	2	-1	5	6.7	3939	4
O=S1(=O)CCC(NC(=S)N2CCCCCC2)C1 (configuration not stated)	-1	10	-9	3	1.3	2557	3
Cc1cccc(-n2c(C)nc3cc(C(=O)N4CCC5(CC4)OCCO5)ccc32)c1	1	1	-12	3	-1.6	10544	4
CCOC(=O)c1c(N)c(C#N)c2n1CCCCC2	nt	nt	-31	-2	2.9	3742	8
O=C(Nc1ccccc1N1CCCC1)c1ccccc1F	9	18	-18	-8	8.6	3527	5
COc1ccc(C(=O)/C(=C/c2cccs2)c2nc3ccccc3o2)cc1	nt	nt	-13	5	-6.4	2786	6
COc1ccc(C=NNC(=O)c2c(-c3ccccc3)noc2C)cc1	-4	2	nt	nt	-5.6	nt	3
CCOc1ccc(C=NNC(=O)c2csc(C)c2C)c(OCC)c1	6	5	nt	nt	4.9	nt	4
CC(=O)/C(=C(/O)c1ccccc1)c1nc2ccccc2[nH]1	nt	nt	-27	-11	nt	4439	nt
CCN(CC)C(=O)CSc1ncnc2sccc12	7	5	-12	-6	3.5	2360	10
CC(C)Oc1ccc(C=NNC(=O)c2ccc(N(Cc3ccccc3)S(C)(=O)=O)cc2)cc1	0	3	nt	nt	6.4	nt	4
COc1cccc(C(=O)N2CCC(n3nccc3NC(=O)C(OC)c3ccccc3)CC2)c1 (configuration not stated)	3	4	-4	-2	0.1	5417	4
CCOc1ccc2nc(NC(=O)C(CC)Sc3nc(C)cc(=O)[nH]3)sc2c1 (configuration not stated)	nt	nt	-22	2	5.2	2264	-6
COc1cc(CCC(=O)Nc2sccc2C#N)cc(OC)c1OC	4	-4	-15	2	2.0	3279	-2
O=C(COC(=O)Cn1cnc2ccccc2c1=O)Nc1ccccc1OC(F)F	6	2	-21	nt	2.0	3237	-1
CN(NC(=O)COc1ccccc1)c1ccccc1	nt	nt	-9	3	3.2	2349	8
Cc1onc(-c2ccccc2)c1C(=O)NC(C)c1ccccc1 (configuration not stated)	9	3	-9	-5	14	4023	4
CCN(C(=O)COC(=O)c1cc(-c2ccccc2)nc2c1c(C)nn2-c1ccccc1)C1CCS(=O)(=O)C1 (configuration not stated)	2	4	-3	-5	1.6	1988	5
COc1ccc(C(=O)Nc2ccc(N3CCN(c4ccc(OC)cc4)CC3)c(C#N)c2)cc1	nt	nt	-10	4	-2.5	2447	13
CCC(Cc1ccccc1)n1c(=S)[nH]c2ccccc2c1=O (configuration not stated)	7	-1	-24	1	0.0	3900	-26
Cc1ccc(O)c(-c2cc(C(=O)NCc3ccc4c(c3)OCO4)[nH]n2)c1	10	1	-2	-5	2.6	2351	8
CC(=NNC(=O)c1ccccc1)c1ccc(NC(=O)c2cccs2)cc1	8	-2	nt	nt	2.7	nt	-3
COC(=O)C1=C(c2ccc(F)cc2OCc2ccccc2)CC2CCC1N2C(=O)NCc1ccccc1OC (configuration not stated)	-4	4	nt	nt	-5.0	nt	-21
CSCCC(NC(=O)c1ccco1)C(=O)NCC(c1ccco1)N1CCCCC1 (configuration not stated)	6	5	-1	nt	3.5	4026	2
COc1ccc(C(=O)CSc2nnc(CNC(=O)c3ccccc3)o2)cc1	5	3	-16	9	2.3	5174	2
Cc1cccc2cc(/C=N/NC(=O)c3ccccc3O)c(Cl)nc12	nt	nt	-19	2	nt	2421	nt
COc1ccc(CNC(=O)C(C)n2nc(C)c3c(C)n(-c4ccccc4)nc3c2=O)c(OC)c1 (configuration not stated)	-5	-5	-8	0	0.9	5284	1
O=C(NCc1ccccn1)c1cccs1	1	12	-16	10	2.0	17079*	1
CN1CCN(C(=O)c2cccn(Cc3ccc(C(F)(F)F)cc3)c2=O)CC1	5	-16	-10	3	1.3	2951	2
O=C(COc1ccccc1Cl)NCCNC(=O)c1ccncc1	-9	5	-17	-2	2.1	2781	-5
Cn1ncc(Br)c1NC(=O)Nc1ccccc1	12	7	-19	3	1.5	3730	-6
Cc1cc(C)n(/N=C/c2cccc([N+](=O)[O-])c2)c(=O)c1	nt	nt	-2	-16	nt	3241	nt
COc1ccc(C=C2C(=O)N(C)C(=O)N(C)C2=O)cc1CSc1ccccn1	nt	nt	-9	-9	7.3	2142	8
Cn1nccc1CNC(=O)c1c(Cl)cnn1C	-6	9	-7	10	0.0	2392	1
CCn1nc(NC(=O)c2ccncc2)c2cc3ccc(C)cc3nc21	13	8	-22	8	5.3	20719*	-12

The list goes on, overlapping the part above by six compounds.
SMILES	Mtb hypoxia inh	Mtb hypoxia inh growth	PrP 5UTR inh	BJeLR viability	Sa RN4220 lethal	Bead autofluor	Sa ugtP lethal
O=C(COc1ccccc1Cl)NCCNC(=O)c1ccncc1	-9	5	-17	-2	2.1	2781	-5
Cn1ncc(Br)c1NC(=O)Nc1ccccc1	12	7	-19	3	1.5	3730	-6
Cc1cc(C)n(/N=C/c2cccc([N+](=O)[O-])c2)c(=O)c1	nt	nt	-2	-16	nt	3241	nt
COc1ccc(C=C2C(=O)N(C)C(=O)N(C)C2=O)cc1CSc1ccccn1	nt	nt	-9	-9	7.3	2142	8
Cn1nccc1CNC(=O)c1c(Cl)cnn1C	-6	9	-7	10	0.0	2392	1
CCn1nc(NC(=O)c2ccncc2)c2cc3ccc(C)cc3nc21	13	8	-22	8	5.3	20719*	-12
COc1ccc(OC)c(-c2c3c([nH]c(=S)c2C#N)CCCC3)c1	-1	5	-9	-13	2.6	3907	7
NC(=O)NN=Cc1c(Sc2nnnn2-c2ccccc2)nc2ccccn2c1=O	19	12	nt	nt	0.9	nt	1
COc1cc(NC(=O)C2CCCC2)c(OC)cc1Cl	-8	3	-9	-4	0.7	2970	1
CC1CC(C)CN(CCCNC(=O)c2c(O)nc3ccccn3c2=O)C1 (configuration not stated)	6	8	-28	-6	2.3	?	12
COc1ccccc1CNc1ccc2nnc(CCNC(=O)c3ccccc3)n2n1	13	6	-20	4	2.9	4785	10
CCN1CCN(C(=O)C2=CC(c3ccc(C)cc3)=NS(=O)(=O)N2C)CC1	6	4	-14	13	-5.0	5059	-4
Cc1cc(NC(=O)CSc2nc3ccccc3c(=O)n2CCCC(=O)NCc2ccco2)n[nH]1	10	4	-55	-3	4.1	8870	4
NC(=O)c1ccsc1NC(=O)CN1CCN(S(=O)(=O)c2ccccc2C(F)(F)F)CC1	3	1	-2	nt	4.7	3814	-6
Oc1ccc(-c2cn3cc(C(F)(F)F)ccc3n2)cc1	9	6	-7	-5	9.9	2697	-12
O=C(O)c1cccc(-c2ccc(/C=N/NC(=O)c3cccnc3)o2)c1	nt	nt	-2	14	nt	7892	nt
CSc1cccc(NC(=O)CCS(=O)(=O)c2cccc3nonc23)c1	5	11	-35	-18	1.0	5280	4
Cc1cc(NS(=O)(=O)c2ccc(NS(=O)(=O)c3cc(C)c(Cl)cc3Cl)cc2)no1	-7	0	-7	-9	3.6	5184	-6
CCc1ccc(NC(=O)C(C)OC(=O)c2ccc(-n3cnnn3)cc2)cc1 (configuration not stated)	8	16	-24	-10	4.9	?	9
O=C(CN1C(=O)c2ccc([N+](=O)[O-])cc2C1=O)NCC1CCCO1 (configuration not stated)	-6	-6	-7	-7	1.3	4521	4
Clc1nc(-c2n[nH]nc2Cl)n[nH]1	15	9	-6	1	0.6	4175	2
Cc1ccc(S(=O)(=O)Nc2ccccc2CNc2ccc(Br)cn2)cc1	8	10	-21	7	-6.0	2050	-27
Cc1ccc(S(=O)(=O)N2C(=O)C(C)SC2=Nc2ccccc2)cc1 (configuration not stated)	8	-1	5	2	4.4	9859	-2
Cc1ccc2nsnc2c1NC(=O)c1ccc(-c2cc(Cl)ccc2Cl)o1	6	13	-13	40	11	2942	17
COc1ccc(CN2CC(C(=O)NCc3cccc(OC)c3)CC2=O)cc1 (configuration not stated)	5	10	-14	-1	4.8	2867	2
CCC1Oc2ccccc2N(CC(=O)NCC2CCCO2)C1=O (configuration not stated)	-1	-9	-10	-11	2.2	4201	8
Cc1cc(C)cc(N(CC(=O)Nc2ccc(C)cc2Cl)S(=O)(=O)c2c(C)[nH]c(=O)[nH]c2=O)c1	nt	nt	-2	2	nt	6255	nt
COc1ccc(NC(=O)CSc2nc3cccnc3n2C)cc1	-1	14	-1	10	2.6	4743	11
Cc1c(C=NNC(=O)C(C)(C)Oc2ccc(Cl)cc2)cnn1C	8	15	nt	nt	7.1	nt	6
C=CC[n+]1c(/C=C/c2ccc(OC(C)=O)c(OC)c2)ccc2ccccc21	4	6	-2	-3	-2.0	4619	0
COc1ccc(CCNS(=O)(=O)c2cccc(C(=O)O)c2)cc1OC	13	8	-8	0	2.4	4161	4
CS(=O)(=O)N1CCN(c2ccccc2NC(=O)c2ccc([N+](=O)[O-])o2)CC1	9	0	-7	-1	100*	3344	88
COc1ccc(NC(=O)C2CCCN(C)C2)cc1OCC(C)C (configuration not stated)	12	6	-24	4	5.4	3708	5
COc1ccccc1Nc1nc(=O)[nH]nc1C	7	11	-30	2	2.9	10635	2
COc1ccc(CCn2c(-c3ccc(C(C)(C)C)cc3)n[nH]c2=S)cc1OC	-3	4	-20	-10	1.9	4558	-19
O=C(CSc1nnnn1C1CC1)N1CCN(c2cccc(Cl)c2)CC1	0	7	-10	nt	5.4	3754	4
CCCn1nnc(NC(=O)c2cc(Br)cc(Br)c2OC)n1	-1	2	-12	-2	1.4	13915	-6
COc1cc(C=NNC(=O)c2cc(-c3ccccc3C)nc3ccccc23)cc(OC)c1O	-4	9	nt	nt	-0.4	nt	1
O=C(Nc1ccc(S(=O)(=O)N2CCCCC2)cc1)C1CC(=O)N(c2ccc(Cl)cc2)C1 (configuration not stated)	0	-3	-10	-5	-0.4	4369	-7
Cc1cccc(N2CCC(N=CN(C)C)=N2)c1	8	4	-53	-1	1.7	2130	7
Cc1ccc(C(=O)COC(=O)c2cc(=O)[nH]c3ccccc23)cc1	-4	1	-28	12	7.0	4992	9
Cc1ccc(Cn2c(SCC(=O)NCC3CCCO3)nc3c2c(=O)n(C)c(=O)n3C)cc1 (configuration not stated)	1	8	-11	-1	4.2	3786	5
CCC(=O)Nc1cc2nn(-c3ccc(OC)cc3)nc2cc1C	3	6	-23	1	0.7	7899	-1
COc1ccccc1CNC(=O)c1ccc(SC)cc1OC	7	9	-22	-8	3.8	10946	3
CCOc1ccccc1OCC(=O)NCc1ccco1	-5	3	-14	3	-6.2	5345	-14
C=CCNc1nnc(C)c2ccccc12	nt	nt	-8	11	2.6	2981	9
CN(N=Cc1ccncc1)c1cnn(-c2ccc(F)c(Cl)c2)c(=O)c1Cl	8	9	nt	nt	4.3	nt	-12
Cn1c(SCC(=O)O)nc2ccccc2c1=O	9	2	-12	-13	7.1	12823	6
COc1cc(OC)cc(C(=O)NCCN2C(=O)S/C(=C\c3cccs3)C2=O)c1	nt	nt	-34	4	6.2	4517	12

Compound activity (PubChem)
